Screening data: PubChem, several laboratories
Ecoli growth: inhibitors of Escherichia coli growth; OD600, 23 h; stronger effect = lower value; OD600 absorbance (concentration not given with the values); 0.21% of 330,000 active; AID 1053175;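 active means OD600 absorbance below the run mean of sample wells minus 3.6 SD, in any replicate, cut at about 0.56 in these data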;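 further: stock transfer was 300 nL into about 60 µL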
ALR H2O2 inh: inhibitors of human sulfhydryl oxidase ALR. purified ALR, DTT oxidation, H2O2 HRP-luminol luminescence. inhibition, % (no concentration beside the values). 3.8% of 290,000 active. AID 485317;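 active means mean and each replicate at 75% or more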;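 further: stock transfer was 7.5 nL into about 7.5 µL; 0% = neutral wells and 100% = wells with inactivated enzyme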
Target sequence (P55789 whole entry, looked up): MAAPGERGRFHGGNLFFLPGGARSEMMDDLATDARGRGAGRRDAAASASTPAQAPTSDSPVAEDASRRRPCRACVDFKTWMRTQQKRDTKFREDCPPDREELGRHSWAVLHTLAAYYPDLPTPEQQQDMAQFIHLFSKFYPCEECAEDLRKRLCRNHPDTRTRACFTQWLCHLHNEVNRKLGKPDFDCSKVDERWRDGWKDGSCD
LANA-H2B inh: blocks KSHV LANA binding to histone H2A/H2B; cell-free LANA-H2A/H2B peptide, fluorescence polarization; Q9QR71; 0.6% of 320,000 active; inhibition, % (test concentration not listed); in the data active means inhibition mostly above about 10%, no sharp cut-off; inactive means mostly below about 6.7%;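 further: stock transfer was 7.5 nL into about 10 µL; 0% = median of vehicle wells and 100% = median of positive control wells; one replicate is shown; the record names a cut of 25% in any replicate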
UCH37 DUB inh: blocks the human deubiquitinase UCH37 | Q9Y5K5 | purified proteasome/UCH37, Ub-AMC cleavage fluorescence | inhibition, % (test concentration not listed) | 0.33% of 330,000 active;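 active means mean of two replicates above 20%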;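 further: 0% = compound-free wells with enzyme and 100% = wells lacking proteasome; stock transfer was 100 nL into about 20 µL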
Target sequence (Q9Y5K5 whole entry, looked up): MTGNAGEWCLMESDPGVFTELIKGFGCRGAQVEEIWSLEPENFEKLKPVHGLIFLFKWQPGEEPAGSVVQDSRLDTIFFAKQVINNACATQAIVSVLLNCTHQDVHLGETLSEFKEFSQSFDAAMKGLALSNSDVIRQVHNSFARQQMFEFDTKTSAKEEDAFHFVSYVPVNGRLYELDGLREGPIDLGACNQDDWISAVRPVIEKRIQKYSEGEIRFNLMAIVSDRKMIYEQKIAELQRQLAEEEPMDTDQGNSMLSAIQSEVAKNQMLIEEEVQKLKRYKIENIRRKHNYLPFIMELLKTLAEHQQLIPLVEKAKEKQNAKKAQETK
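Material: Human UCH37 enzyme supplied as purified proteasome complex | Schedule: 30 min preincubation with enzyme, 25 min cleavage at room temperature | Detection: AMC fluorescence 355/460 nm | Measure: % inhibition of Ub-AMC cleavage fluorescence | Controls: Wells without proteasome as full block, compound-free enzyme plus substrate as uninhibited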
HNF4A DNA FP: change in binding of human HNF4 alpha to DNA; P41235; HNF4a-FITC DNA binding, fluorescence polarization, 1 h; activity change, % at 10 µM; 0.3% of 360,000 active; AID 1224865; in the data active means activity change above about 30%, passing the limit was not always enough;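 further: controls were the assay level and a saturating level of protein; the project sought stronger binding though the title names inhibitors; some compounds called inactive have numbers as strong as hits; positive values seem to mean higher polarization but the record does not say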
Target sequence (P41235 whole entry, looked up): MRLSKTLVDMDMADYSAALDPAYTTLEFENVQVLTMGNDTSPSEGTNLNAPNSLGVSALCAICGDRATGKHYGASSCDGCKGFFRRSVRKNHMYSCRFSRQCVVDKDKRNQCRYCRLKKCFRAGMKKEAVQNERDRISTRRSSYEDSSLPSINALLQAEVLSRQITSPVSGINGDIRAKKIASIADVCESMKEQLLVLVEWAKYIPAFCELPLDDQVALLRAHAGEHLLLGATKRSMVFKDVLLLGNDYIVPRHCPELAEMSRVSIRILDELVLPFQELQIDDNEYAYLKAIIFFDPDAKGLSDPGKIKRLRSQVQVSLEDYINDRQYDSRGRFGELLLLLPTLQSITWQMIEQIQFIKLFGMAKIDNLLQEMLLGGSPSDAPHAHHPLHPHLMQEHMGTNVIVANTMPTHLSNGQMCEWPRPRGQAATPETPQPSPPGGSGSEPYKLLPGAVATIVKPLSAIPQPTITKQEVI
FGF22 binding: FGF22 (human) thermal shift binding | Q9HCT0 | recombinant FGF22 thermal shift, SYPRO orange fluorescence; percent of sucrose octasulfate shift, DMSO zero | calls only at 9.99 µM | 1.5% of 340,000 active | AID 651658;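 active means melting point raised past a set limit in the mean and every replicate; three in four hits are not shown here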
B2AR ag: human beta-2 adrenergic receptor agonism by FAP. P07550. Am2.2-beta2AR cells, FAP receptor internalization, flow cytometry; reference of the scale not given here. response, % (concentration not given with the values). 0.43% of 340,000 active. AID 504454;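 active means response above a set limit, near 3 SD of response in nonfluorescent compounds, cut at about 42% in these data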;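 further: stock transfer was 100 nL into about 11 µL; a reference agonist was the positive control; negative values mostly stem from fluorescent compounds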
* = called active by the depositor; i = inactive; x = no result given.

SMILES | Ecoli growth | ALR H2O2 inh | LANA-H2B inh | UCH37 DUB inh | HNF4A DNA FP | FGF22 binding | B2AR ag
CN1CCCN(C(=O)C2CCCCC2)CC1 | 0.71 | x | -0.3 | 1.8 | 0.9 | i | -9
CCOC(=O)C(CC)n1cnc2c(oc3ccccc32)c1=O (stereo unspecified) | 0.74 | -22 | -3.0 | 1.0 | 3.1 | x | -13
COc1ccc(OCC(=O)N2CCC3(CC2)CC(=O)c2ccccc2O3)cc1 | 0.65 | -3 | 0.1 | -14 | -4.0 | i | -3
Cc1cc(NS(=O)(=O)c2ccc(NC(=O)NC(C)(C(F)(F)F)C(F)(F)F)cc2)no1 | 0.71 | -2 | 7.1 | 1.0 | 1.2 | x | 3
CCC(C)(C)NC(=O)C(c1cccnc1)N(C(=O)c1csnn1)c1ccc(C)cc1 (stereo unspecified) | 0.68 | -15 | 1.2 | 1.8 | 2.7 | i | 0
Cc1cccc(-c2nnc(SCC(=O)Nc3cc(C)on3)n2C)c1 | 0.69 | -6 | 0.0 | -0.3 | 1.9 | i | 2
Cc1cccc(N2CCN(C(=O)NC3CCCCC3)CC2C)c1 (stereo unspecified) | 0.65 | 88* | 7.8 | 4.7 | -1.1 | i | 4
CC(=O)N1c2ccc(S(=O)(=O)NCC3CCC(C(=O)N4CC(C)CC(C)C4)CC3)cc2CC1C (stereo unspecified) | 0.69 | -7 | -0.5 | 1.7 | -0.4 | i | -11
CCOC(=O)c1cc2c(ccn2C)n1CC(=O)Nc1ccc(F)cc1 | 0.65 | -40 | 1.5 | -6.3 | -1.3 | i | 2
COc1cc2ccccc2cc1C(=O)NCCCN1CCOCC1 | 0.68 | -5 | 1.5 | -58 | -1.9 | i | -4
O=C(Cn1cc(C(=O)c2cccs2)c2ccccc21)NC1CCCCC1 | 0.69 | -3 | 1.8 | 2.3 | 0.8 | x | -5
CCOc1ccc(S(=O)(=O)Nc2cccc(C(=O)N3CCN(c4ccccc4O)CC3)c2)cc1 | 0.63 | 24 | 2.0 | 3.6 | -5.3 | i | -5
C=CCNc1ncnc2c1cnn2-c1ccc(OC)cc1 | 0.66 | -6 | 0.7 | 1.1 | -1.4 | x | 10
CC(C)c1nnc(NC(=O)CCS(=O)(=O)c2nc(-c3cccs3)cc(C(F)(F)F)n2)s1 | 0.7 | 53 | -1.6 | 4.8 | -0.3 | x | 97*
Cc1cc(C)c(NC(=O)COC(=O)C2CCC2)c(Cl)c1 | 0.71 | -1 | -5.2 | 0.2 | 4.8 | i | -9

2 entries from above, with the structure last.
Ecoli growth,ALR H2O2 inh,LANA-H2B inh,UCH37 DUB inh,HNF4A DNA FP,FGF22 binding,B2AR ag,canonical_smiles
0.71,-2,7.1,1.0,1.2,x,3,Cc1cc(NS(=O)(=O)c2ccc(NC(=O)NC(C)(C(F)(F)F)C(F)(F)F)cc2)no1
0.7,53,-1.6,4.8,-0.3,x,97*,CC(C)c1nnc(NC(=O)CCS(=O)(=O)c2nc(-c3cccs3)cc(C(F)(F)F)n2)s1

The listing continues:
SMILES | Ecoli growth | ALR H2O2 inh | LANA-H2B inh | UCH37 DUB inh | HNF4A DNA FP | FGF22 binding | B2AR ag
COc1ccc(C2(O)CCN(C(=O)NC3CCCCC3)CC2)cc1 | 0.68 | 11 | -10.0 | 3.9 | 6.7 | x | 3
O=C(Cn1cnc2c(OCc3ccccc3)ncnc21)NCCCc1ccccc1 | 0.72 | x | 1.8 | -1.0 | 0.9 | i | -8
CS(=O)(=O)N(CC(=O)Nc1ccc(Cl)c(Cl)c1)C1CCCCC1 | 0.7 | 1 | 7.7 | 2.1 | 4.5 | x | -1
CC1=C(CC/C(C)=N/NC(N)=S)C(C)(C)CCC1 | x | 18 | -0.3 | x | -0.8 | i | 4
COc1cc(OC)c(OC)cc1CNC(=O)c1cc(=O)c2ccccc2o1 | 0.69 | -26 | 4.5 | 1.5 | 0.2 | i | -3
Cc1c(CN2CC[C@@H](N3CCN(c4ccccn4)CC3)[C@H](O)C2)[nH]c2ccc(F)cc12 | 0.63 | 8 | -1.3 | 2.8 | -3.7 | i | 2
CN(CC(=O)Nc1ccc(OC(F)(F)F)cc1)C(=O)Cc1ccc2c(c1)CCC2 | 0.68 | -5 | x | 4.8 | 2.2 | i | -8
COc1ccc(-c2c(C#N)c(N)n(N)c(=O)c2C#N)cc1Cl | 0.69 | x | 1.0 | 7.9 | 4.0 | i | -5
CN(CC(=O)Nc1ccccc1Br)C(=O)c1cccnc1Nc1cccc(C(F)(F)F)c1 | 0.71 | 2 | -1.3 | 1.6 | -1.9 | i | 6
CC1CCN(CCCCOc2ccc(C(C)(C)C)cc2)CC1 | 0.63 | -7 | 1.5 | -0.6 | -2.5 | i | 8
CCOC(=O)c1ccccc1NC(=O)COC(=O)c1cc([N+](=O)[O-])ccc1N1CCOCC1 | 0.7 | 5 | -4.9 | 3.2 | -1.1 | i | 12
CC(C)Oc1ccc(C(=O)NN2C(=O)NC3(CCCCC3)C2=O)cc1 | 0.71 | -1 | -4.5 | 1.0 | -2.4 | i | -5
COc1ccc(C(CNC(=O)c2cc(C)oc2C)N2CCOCC2)cc1 (stereo unspecified) | 0.68 | 7 | -2.0 | 1.1 | -3.6 | x | 3
CCCCn1cnc2c(SCc3ccccc3F)nc(N)nc21 | 0.67 | x | x | 1.9 | 1.2 | i | -10
CN(C)c1nc(F)c(F)c(S(=O)(=O)c2ccccc2)c1F | 0.66 | -1 | 0.4 | -2.1 | 3.4 | i | 0
COc1ccccc1Nc1nnc(SCC(=O)N2CCCC2=O)s1 | 0.67 | 11 | -1.3 | 2.9 | 0.5 | i | 1
Cc1nc(N2CCOCC2)nc(OCCN(C)C)c1[N+](=O)[O-] | 0.67 | -14 | -3.0 | 8.8 | 1.5 | i | -1
COc1ccccc1NC(=O)CCc1nc(-c2cccs2)no1 | x | 2 | 0.9 | x | -0.5 | x | -2
O=C(Nc1cccc(N=Cc2cc(Br)cc(Br)c2O)c1)c1ccco1 | 0.66 | 3 | x | 0.3 | 1.7 | x | 10
CC1(C)OC(=O)C(=CNc2ccccn2)C(=O)O1 | 0.68 | -2 | 1.6 | 6.0 | 3.4 | i | -4
COc1cc(OC)cc(C(=O)NCC(=O)OCc2ccc(Cl)c(Cl)c2)c1 | 0.67 | x | x | 2.3 | -2.3 | i | 3
Cc1cccc(C)c1NC(=S)N(CCN(C)C)C(C)c1cccnc1 (stereo unspecified) | 0.7 | -20 | 2.7 | 3.5 | 4.5 | i | 1
c1ccc(-c2ccc3c(c2)NC(C2Nc4cc(-c5ccccc5)ccc4O2)O3)cc1 (stereo unspecified) | x | 1 | -1.8 | x | 1.5 | i | -2
COc1ccc(-c2cn3cccnc3n2)cc1NC(=O)C1CCCC1 | 0.68 | -6 | 3.1 | -127 | 2.1 | x | -25
CCOC(=O)CC1C(=O)NCCN1S(=O)(=O)c1cc(Cl)c(Cl)cc1Cl (stereo unspecified) | 0.67 | 0 | 3.8 | 4.8 | -0.1 | x | 2
COc1ccc2[nH]c(=O)c(CN(C(=O)c3ccncc3)C(C)C)cc2c1 | 0.66 | -5 | -5.0 | -12 | -1.5 | x | 0
COc1ccc(/C=N/NC(=O)CC(=O)NCc2cccnc2)cc1 | x | 9 | 2.2 | x | -1.5 | x | 7
Cc1ccc(S(=O)(=O)NCC(=O)N(CC2CCCO2)C(C(=O)NCC2CCCO2)C(C)C)cc1 (stereo unspecified) | 0.71 | x | 0.5 | 2.7 | -2.6 | i | 2
CCCCn1c(N)c(N(CC(C)C)C(=O)c2cc(C)oc2C)c(=O)[nH]c1=O | 0.69 | 0 | -3.3 | 2.3 | -3.4 | i | 1
Cc1ccc(S(=O)(=O)N2CCOCC2)cc1C(=O)OCCOc1cccc(Cl)c1 | 0.73 | -17 | -0.1 | 2.5 | 0.7 | i | -7

With a hit mark in B2AR ag, among the entries above:
SMILES | Ecoli growth | ALR H2O2 inh | LANA-H2B inh | UCH37 DUB inh | HNF4A DNA FP | FGF22 binding | B2AR ag
CC(C)c1nnc(NC(=O)CCS(=O)(=O)c2nc(-c3cccs3)cc(C(F)(F)F)n2)s1 | 0.7 | 53 | -1.6 | 4.8 | -0.3 | x | 97*

Remaining list, next part.
SMILES | Ecoli growth | ALR H2O2 inh | LANA-H2B inh | UCH37 DUB inh | HNF4A DNA FP | FGF22 binding | B2AR ag
CCOC(=O)NNC(=O)CCn1c2c(c3ccccc31)CCCC2 | 0.68 | 4 | -2.9 | 5.9 | -1.2 | i | 5
COc1ccc(-c2cn(Cc3ccc4c(c3)C(=O)c3ccccc3C4=O)nn2)cc1 | 0.67 | 3 | -0.2 | 1.4 | 0.6 | i | -7
CC(=O)c1ccc(NC(=O)CCNS(=O)(=O)c2cc(Br)cnc2N)cc1 | 0.61 | 4 | -12 | -0.7 | -1.4 | i | -3
O=C(NNC1CCN(Cc2ccccc2)CC1)c1ccccc1 | 0.67 | x | x | 1.0 | 4.2 | i | -5
COc1ccc(NC(=O)c2ccco2)cc1NC(=O)c1ccc(C#N)cc1F | 0.68 | -1 | 0.0 | 3.3 | 0.0 | i | -14
CCOC(=O)C(=CNc1nc(-c2ccccc2)c(C(=O)Nc2ccc(-c3ccccc3)cc2)s1)C(=O)OCC | 0.7 | -7 | 3.5 | -113 | -1.7 | i | 5
CCCn1c(N)c(C(=O)COc2ccc(Br)cc2F)c(=O)n(C)c1=O | 0.69 | -12 | 0.8 | -0.5 | 2.2 | i | -5
CC(=O)N1CCCc2cc(S(=O)(=O)CCC(=O)N3CCN(c4cccc(C)c4)C(C)C3)ccc21 (stereo unspecified) | 0.77 | 12 | 0.3 | 4.1 | -4.4 | i | 3
COc1cc2c(cc1OC)C(C1C(=O)CC(C)(C)CC1=O)N(C(=O)CCl)CC2 (stereo unspecified) | 0.68 | 2 | 2.5 | -3.4 | -24 | i | -2
Cc1ccc(S(=O)(=O)CCC(=O)N2CCc3ccccc32)cc1 | 0.75 | -9 | 2.4 | -5.1 | -0.9 | x | 0
CC(NC(=O)CSc1nc2c(cc1C#N)CN(C)CC2)c1ccccc1 (stereo unspecified) | 0.73 | -33 | -2.4 | -0.7 | -0.2 | x | -15
COC(=O)c1ccc(-c2ncc[nH]2)cc1 | 0.69 | 0 | 1.8 | -135 | 4.7 | i | -3
O=C(CCNC(=O)c1ccc(Br)cc1)NCc1ccco1 | 0.67 | 1 | -3.8 | 5.1 | -0.9 | i | 6
C/C(=N\NC(=O)c1ccc(N(C)C)cc1)c1cccnc1 | x | 68 | 2.1 | x | 0.2 | i | 0
CC(=O)c1ccc(N(CC(=O)NC2CCCC2)C(=O)CCC(=O)Nc2cc(C)on2)cc1 | 0.66 | 0 | 0.2 | 1.5 | 1.9 | i | 2
COc1cccc(C(=O)NCCS(=O)(=O)N2CC(C)CC(C)C2)c1 (stereo unspecified) | x | 17 | -2.1 | x | 3.1 | x | 0
CCCn1nnnc1NCc1c(F)cccc1Cl | 0.73 | -2 | -2.7 | 4.5 | 3.8 | i | -4
CN(C)S(=O)(=O)c1cccc(-c2nn(-c3ccccc3)cc2/C=C2\SC(=S)NC2=O)c1 | 0.69 | 43 | 0.6 | 7.5 | 59* | i | -2
COc1c(O)cccc1-c1nnn(CCC(=O)OCC(=O)c2ccccc2)n1 | 0.72 | 49 | 4.7 | 2.3 | -0.7 | x | -2
CCN(CC)Cc1cc(CC(C(N)=O)C(N)=O)ccc1OC | 0.73 | x | -2.3 | 2.2 | -1.9 | x | 6
CC(C)(C)NC(=O)CN(Cc1cccs1)C(=O)CN1C(=O)C(=O)c2ccccc21 | 0.63 | -4 | -1.0 | 1.4 | 0.0 | i | 1
CCOc1ccccc1N1CCN(C(=O)c2c(-c3c(F)cccc3Cl)noc2C)CC1 | 0.75 | x | 7.3 | 0.9 | -1.0 | i | 7
CC(C)=CCN1CCN(Cc2cc3ccccc3[nH]2)CC1CCO (stereo unspecified) | 0.66 | -14 | 4.2 | 0.1 | -1.7 | i | 1
COc1ccccc1NS(=O)(=O)c1ccc(N2CCOCC2)c(NC(=O)c2ccco2)c1 | 0.7 | x | -3.5 | 1.9 | 10 | i | 2
COc1cccc(NC(=S)N2c3ccccc3CC2C)c1 (stereo unspecified) | 0.7 | -12 | 0.3 | 2.6 | -2.7 | i | -3

These rows are one share of the data; the hit share may differ from the screen's.
